Screens deposited in PubChem BioAssay by Broad Institute.
MLL AF4-AF9 inh – blocks AF4 peptide binding to human AF9; P42568; AlphaScreen, biotin-AF4 peptide binding to FLAG-AF9; inhibition, % at 10 µM; 350,000 tested, 0.47% active;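 active = every replicate reaching a set inhibition limit, whatever the replicate mean, cut at about 25% in these data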;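 also: 0% = plate neutral control median and 100% = total signal loss; the record names both 10 and 1 µM as test concentration; the first replicate is given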
Target sequence (P42568 whole entry, looked up): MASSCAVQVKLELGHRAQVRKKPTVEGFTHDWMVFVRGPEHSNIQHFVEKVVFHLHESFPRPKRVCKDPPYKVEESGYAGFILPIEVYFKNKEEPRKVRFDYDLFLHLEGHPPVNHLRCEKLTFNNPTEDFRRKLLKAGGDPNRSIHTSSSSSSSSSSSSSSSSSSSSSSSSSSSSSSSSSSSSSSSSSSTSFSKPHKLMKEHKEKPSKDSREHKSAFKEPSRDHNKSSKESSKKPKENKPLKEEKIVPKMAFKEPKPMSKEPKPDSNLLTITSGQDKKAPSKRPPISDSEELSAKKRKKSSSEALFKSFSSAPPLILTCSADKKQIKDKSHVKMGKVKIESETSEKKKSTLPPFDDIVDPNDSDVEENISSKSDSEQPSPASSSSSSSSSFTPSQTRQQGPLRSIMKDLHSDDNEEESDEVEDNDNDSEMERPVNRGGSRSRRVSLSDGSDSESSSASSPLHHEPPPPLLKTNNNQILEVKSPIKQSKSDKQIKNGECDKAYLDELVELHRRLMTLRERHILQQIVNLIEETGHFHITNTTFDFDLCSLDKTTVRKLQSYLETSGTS
Ecoli rRNA inh – inhibits bacterial ribosomal RNA function over humanized ribosomes; E. coli WT GFP vs humanized-ribosome RFP mutants, fluorescence, 24 h; stronger effect = lower value; DMSO median 0, no signal -100; GFP signal change (wild-type ribosome), % (test concentration not listed); 350,000 tested, 1.6% active; AID 720706;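 active = significant combined selectivity score with lowered wild-type GFP, culture density cut under 30%, mutant RFP and density less affected; inactive = any of these conditions unmet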; also: one replicate is shown; some compounds called inactive have numbers as strong as hits
Ecoli rRNA inh OD600 – recorded beside Ecoli rRNA inh, whose call it bears; OD600 change, %; measured here: OD600 growth;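 optical density of the mix in the first replicate; 0 = DMSO median and -100 = no signal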
Ecoli rRNA inh RFP – further read-out of Ecoli rRNA inh, marked with its call; RFP signal change, %; measured here: RFP humanized mutant strains;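 first replicate; 0 = DMSO median and -100 = no signal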
The depositor's hits bear a star; & = joins results of further samples.

MLL AF4-AF9 inh	Ecoli rRNA inh	Ecoli rRNA inh OD600	Ecoli rRNA inh RFP	smiles
-1.5	-2	6	1.2	O=C(C[C@H]1CC[C@H](NC(=O)CC2CC2)[C@H](CO)O1)NCc1ccccc1
-3.8	7	2	-1.8	COCC(=O)N1CC(=O)N2[C@H](CO)[C@H](c3ccc(C#Cc4cccnc4)cc3)[C@@H]2C1
-2.6	0	-1	-2.4	O=C(C[C@@H]1CC[C@H]2[C@@H](COC[C@H](O)CN2CC2CCCC2)O1)NCc1ccc(Cl)cc1
-0.3	5	5	6.9	CC(C)(C)S(=O)N1Cc2cc(C(=O)NCc3ccc4c(c3)OCO4)nc(-c3cccc(-c4cccc(F)c4)c3)c2[C@@H]1CCO (some centres undefined)
3.0	-6	-8	-0.2	COc1ccc(-c2ccc3c(c2)O[C@H](CN(C)Cc2ccccc2C(=O)O)[C@@H](C)CN([C@@H](C)CO)S3(=O)=O)cc1
-1.1	1	-2	3.1	Cc1ccc(S(=O)(=O)Nc2ccc3c(c2)C(=O)N([C@@H](C)CO)C[C@H](C)[C@H](CN(C)C(=O)Cc2ccccc2)OCCCC[C@@H](C)O3)cc1
-6.5	5	10	1.7	O=C(NCC(F)(F)F)[C@H]1[C@H](CO)[C@H]2Cn3c(cccc3=O)[C@@H]1N2CC1CCCC1
1.1	-3	-17	1.9	N#C[C@@H]1[C@H](c2ccc(C#CC3CCCCC3)cc2)[C@H](CO)N1C(=O)Nc1ccc(F)cc1
-0.5	-1	1	-3.7	COc1ccc(NC(=O)Nc2ccc3c(c2)C(=O)N([C@H](C)CO)C[C@H](C)[C@H](CN(C)S(=O)(=O)c2ccc(C)cc2)OCCCC[C@H](C)O3)cc1
-1.0	-4	-4	-1.5	COc1cccc(-c2ccc([C@@H]3[C@H](CO)N4C(=O)CN(C(=O)c5ccncc5)C[C@@H]34)cc2)c1
-0.8	-5	-9	3.2	COc1ccccc1-c1ccc([C@H]2[C@@H](CO)N[C@@H]2CNC(=O)C2CCCC2)cc1
-1.9	4	3	-1.0	CO[C@@H]1CN(C)C(=O)c2cc(NC(=O)c3cnccn3)ccc2OC[C@H](C)N(C(=O)C2CC2)C[C@H]1C
-0.2	1	9	-1.4	O=C(NCC1CC1)[C@H]1[C@H](CO)[C@H]2Cn3c(cccc3=O)[C@H]2N1C(=O)Nc1ccccc1
-4.8	1	-10	1.5	O=C(Nc1cccc(F)c1)N1CC(=O)N2[C@H](C1)[C@H](c1ccc(C#CCC3CCCC3)cc1)[C@@H]2CO
-3.5	2	3	-1.6	CCCNC(=O)N1[C@H](CO)[C@H](c2ccccc2)[C@@H]1CNC(C)=O
-1.1	-5	-11	1.4	COc1cccc(C#Cc2ccc([C@H]3[C@@H](CO)N4C(=O)CN(C(=O)Cc5cccnc5)C[C@H]34)cc2)c1
6.4	-59	-73	-12	O=C(CC1CC1)N1CC(=O)N2[C@H](CO)[C@@H](c3ccc(C#Cc4ccccc4)cc3)[C@@H]2C1
5.7	2	5	5.7	COc1cccc(CN2CC3(CCN(Cc4ccccn4)CC3)c3c([nH]c4cc(OC)ccc34)[C@@H]2CO)c1
-0.7	-1	-6	3.2	O=C(C[C@H]1C[C@H]2c3cc(NC(=O)C4CCOCC4)ccc3O[C@H]2[C@H](CO)O1)NC1CCCCC1
-7.9	-2	-3	-1.6	COc1ccc(CN(C)C[C@@H]2Oc3ccc(NC(=O)CCC(F)(F)F)cc3CC(=O)N([C@H](C)CO)C[C@@H]2C)cc1

Rewritten with bars between the fields: entries from further up.
compound | MLL AF4-AF9 inh | Ecoli rRNA inh | Ecoli rRNA inh OD600 | Ecoli rRNA inh RFP
COc1ccc(CN(C)C[C@@H]2Oc3ccc(NC(=O)CCC(F)(F)F)cc3CC(=O)N([C@H](C)CO)C[C@@H]2C)cc1 | -7.9 | -2 | -3 | -1.6
N#C[C@@H]1[C@H](c2ccc(C#CC3CCCCC3)cc2)[C@H](CO)N1C(=O)Nc1ccc(F)cc1 | 1.1 | -3 | -17 | 1.9
O=C(Nc1cccc(F)c1)N1CC(=O)N2[C@H](C1)[C@H](c1ccc(C#CCC3CCCC3)cc1)[C@@H]2CO | -4.8 | 1 | -10 | 1.5
O=C(C[C@@H]1CC[C@H]2[C@@H](COC[C@H](O)CN2CC2CCCC2)O1)NCc1ccc(Cl)cc1 | -2.6 | 0 | -1 | -2.4
COCC(=O)N1CC(=O)N2[C@H](CO)[C@H](c3ccc(C#Cc4cccnc4)cc3)[C@@H]2C1 | -3.8 | 7 | 2 | -1.8

Next structures:
MLL AF4-AF9 inh	Ecoli rRNA inh	Ecoli rRNA inh OD600	Ecoli rRNA inh RFP	smiles
-5.1	3	2	0.1	CO[C@H]1CN(C)C(=O)c2ccc(NC(=O)NC(C)C)cc2OC[C@H](C)NC[C@@H]1C
10	-56&-56	-77&-82	-8.4&-9.9	COc1ccc(-c2ccc(C3[C@@H]4CN(Cc5cccc(OC)c5)C[C@H]3N4)cc2)cc1 (some centres undefined)
-0.7	4	3	-1.3	CCS(=O)(=O)Nc1ccc2c(c1)C(=O)N(C)[C@H]1CC[C@H](CC(=O)NC)O[C@H]1CO2
2.3	4	5	-3.2	CCN1CC(=O)N2[C@H](CO)[C@H](c3ccc(Br)cc3)[C@H]2C1
1.1	-3	-3	1.2	O=C(Cc1ccccn1)N[C@@H]1CC[C@@H](CCn2cc(-c3ccc(F)cc3)nn2)O[C@H]1CO
-1.9	-4	-5	4.8	COc1ccc(NC(=O)N2CC(=O)N3[C@H](C2)[C@@H](c2ccc(Br)cc2)[C@@H]3CO)cc1
-2.2	-1	-48	27	O=C(c1ccc2c(c1)OCO2)N1CC(=O)N2[C@H](CO)[C@H](c3ccc(C#Cc4ccccc4)cc3)[C@H]2C1
-0.9	-1	3	-0.9	CC(C)CC#Cc1ccc([C@H]2[C@@H](CO)N3C(=O)CN(S(=O)(=O)c4cccc(F)c4)C[C@@H]23)cc1
2.0	-17	-59	11	O=C(C[C@@H]1CC[C@H]2[C@@H](COC[C@@H](O)CN2C(=O)c2ccccc2)O1)Nc1ccc(-c2ccccc2)cc1
1.4	-28	-68	3.0	O=C(Nc1cccc(F)c1)N1CC(=O)N2[C@H](CO)[C@H](c3ccc(-c4ccccc4F)cc3)[C@@H]2C1
-3.5	4	5	2.9	O=C(C1CCC1)N1CC(=O)N2[C@H](C1)[C@@H](c1ccc(-c3cccnc3)cc1)[C@@H]2CO
-0.9	0	1	-3.6	O=C1CN(S(=O)(=O)c2ccccc2)C[C@H]2[C@H](c3ccc(C#CCc4ccccc4)cc3)[C@@H](CO)N12
0.8	3	1	-1.6	C[C@@H]1CN([C@@H](C)CO)C(=O)c2cc(NC(=O)Cc3ccccc3)ccc2O[C@@H]1CN(C)Cc1ccc2c(c1)OCO2
-0.5	3	-1	2.5	O=C(C1CCCCC1)N1CC(=O)N2[C@H](CO)[C@@H](c3ccc(-c4cccnc4)cc3)[C@@H]2C1
-1.6	-1	8	-0.4	O=C(NC[C@H]1N[C@H](CO)[C@@H]1c1ccc(-c2cncnc2)cc1)C1CCCC1
-1.1	-1	6	-2.5	CCCC(=O)N1CCC2(CC1)CN(C(=O)C1CC1)[C@H](CO)c1[nH]c3cc(OC)ccc3c12
-3.5	4	10	-2.7	C/C=C/c1ccc([C@H]2[C@H]3CN(C(=O)c4cccc(F)c4)CC(=O)N3[C@H]2CO)cc1
12	-9	14	3.6	O=C(C1CCC1)N1CC[C@@H]2[C@H]1c1cc(C#Cc3ccc(F)cc3)ccc1N[C@@H]2CO
-1.0	2	7	-3.0	C[C@H]1CN([C@@H](C)CO)C(=O)c2cc(-c3ccc(C#N)cc3)cnc2O[C@H]1CN(C)Cc1cncnc1
-1.7	1	-2	0.8	CCCNC(=O)Nc1ccc2c(c1)OC[C@H](C)NC[C@H](C)[C@@H](OC)CN(C)C2=O
-1.2	4	7	-2.4	Cc1ccccc1S(=O)(=O)N(C)C[C@@H]1OCc2ccccc2-c2c(n(C)c3ccccc23)C(=O)N([C@H](C)CO)C[C@H]1C
-1.2	-10	-40	-0.8	Cc1ccc(-c2ccc([C@H]3[C@@H](CO)N4C(=O)CN(C(=O)c5ccccc5)C[C@@H]34)cc2)cc1
-2.8	-46	-66	-0.8	O=C(Nc1ccc(F)cc1)N1CC(=O)N2[C@H](C1)[C@H](c1ccc(-c3ccc(F)cc3)cc1)[C@@H]2CO
-2.5	-42	-60	11	O=C(C1CCCCC1)N1CC(=O)N2[C@H](CO)[C@H](c3ccc(C#Cc4cccc(F)c4)cc3)[C@H]2C1
1.9	-1	8	-1.3	N#Cc1ccc(-c2ccc([C@@H]3[C@@H](CO)N4C(=O)CN(C(=O)C5CC5)C[C@H]34)cc2)cc1
-1.1	2	4	1.1	C[C@@H]1CN([C@H](C)CO)C(=O)c2cc(NC(=O)C3CCCCC3)ccc2O[C@@H](C)CCCCO[C@@H]1CN(C)S(=O)(=O)c1ccc(Cl)cc1
2.3	1	11	-0.3	C[C@@H]1CCCCO[C@H](CN(C)Cc2ccc3c(c2)OCO3)[C@H](C)CN([C@@H](C)CO)C(=O)c2cc(NS(C)(=O)=O)ccc2O1
-4.4	6	6	0.3	CCCN1[C@H](C(=O)OC)[C@@H](CO)[C@@H]2Cn3c(ccc(-c4cccc(C(=O)N(C)C)c4)c3=O)[C@@H]21
4.0	3	5	1.3	CCC(=O)N1[C@H](CO)[C@H](c2ccc(C3=CCCC3)cc2)[C@H]1CNC1CCCC1
2.5	-16	-42	26	CC(C)CC#Cc1ccc([C@@H]2[C@@H](CO)N3C(=O)CN(S(=O)(=O)c4ccccc4)C[C@H]23)cc1
3.7	0	5	1.8	C/C=C/c1ccc([C@H]2[C@@H](CO)N3C(=O)CN(Cc4ccccc4)C[C@@H]23)cc1
-3.9	-3	1	-3.0	C/C=C/c1ccc([C@@H]2[C@@H](CO)N(c3nc(-c4ccccc4)cs3)[C@H]2C#N)cc1
-1.7	3	5	-2.9	C[C@@H]1CCCCO[C@H](CN(C)C(=O)Nc2ccccc2)[C@@H](C)CN([C@H](C)CO)C(=O)c2cc(NC(=O)NC3CCCCC3)ccc2O1
-0.9	2	6	-0.1	COc1ccc2c3c(n(C)c2c1)[C@H](CO)NCC31CN(C(=O)c2cccc(F)c2)C1
-4.1	0	-3	-2.6	N#C[C@H]1[C@@H](c2ccccc2-c2ccccc2)[C@H](CO)N1C(=O)NC1CCCCC1
-2.8	-1	-4	0.9	COc1ccccc1S(=O)(=O)N[C@@H]1C=C[C@H](CC(=O)NCc2cccc(F)c2)O[C@@H]1CO
-1.9	1	0	-2.0	Cc1ccc(S(=O)(=O)N(C)C[C@H]2OCCCC[C@@H](C)Oc3ccc(NC(=O)Cc4ccccc4)cc3C(=O)N([C@@H](C)CO)C[C@@H]2C)cc1
0.4	1	-4	-1.9	Cc1noc(C)c1NC(=O)Nc1ccc2c(c1)C(=O)N([C@@H](C)CO)C[C@H](C)[C@H](CN(C)S(=O)(=O)c1ccccc1)OCCCC[C@@H](C)O2
-4.3	-1	2	-4.3	O=C(C[C@@H]1CC[C@@H]2[C@H](COC[C@@H](O)CN2CC2CCCC2)O1)NCC1CC1
-4.4	2	-1	-2.2	CS(=O)(=O)N1CC(=O)N2[C@H](C1)[C@H](c1ccc(C#Cc3ccccc3)cc1)[C@@H]2CO
3.3	-2	-7	-1.7	O=C1CNC[C@@H]2[C@@H](c3ccc(C#CC4CCCCC4)cc3)[C@H](CO)N12
-2.2	3	7	-0.7	O=C(C[C@H]1C=C[C@H](NC(=O)c2ccncc2)[C@H](CO)O1)Nc1ccccc1
-0.2	1	2	-3.3	O=C(Nc1nccs1)[C@H]1[C@H](CO)[C@H]2Cn3c(cccc3=O)[C@@H]1N2C(=O)C1CCCCC1
-17	-20	-31	21	C[C@H]1CCCCO[C@H](CN(C)CC2CCCCC2)[C@@H](C)CN([C@@H](C)CO)C(=O)c2cc(NC(=O)Nc3ccc4c(c3)OCO4)ccc2O1
3.3	3	-14	27	COC(=O)c1ccc(CN2CC(=O)N3[C@H](CO)[C@@H](c4ccc(-c5ccccc5F)cc4)[C@@H]3C2)cc1
-4.0	2	4	-2.7	COc1cccc(NC(=O)N[C@H]2C=C[C@H](CC(=O)NCc3ccncn3)O[C@H]2CO)c1
-2.9	-3	-3	0.4	O=C(NCC[C@@H]1CC[C@H](NS(=O)(=O)c2ccc(F)cc2)[C@H](CO)O1)c1ccccc1F
12	-58	-80	-17	C[C@H]1CN([C@@H](C)CO)C(=O)Cc2cc(NC(=O)CCCN(C)C)ccc2O[C@@H]1CN(C)Cc1ccc(Oc2ccccc2)cc1
7.0	4	5	1.7	COc1cc(CN2CC3(CCN(S(=O)(=O)c4cn(C)cn4)CC3)c3c(n(C)c4cc(OC)ccc34)[C@H]2CO)cc(OC)c1
2.8	-2	-7	0.5	Cc1ccc(CN2CC(=O)N3[C@@H](CO)[C@H](c4ccc(Br)cc4)[C@@H]3C2)cc1

These rows are one share of the data (hit frequency here may not be typical).
